# Screening data as filed in PubChem.
# STK33 kinase inh = inhibitors of human STK33 kinase | AID 2661 | inhibition, % at 10 µM | purified STK33, MBP phosphorylation, ADP-Glo luminescence | Q9BYT3 | hit rate 0.073% among 320,000;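 active = inhibition at or above 25%, using the most active replicate where run in duplicate; inactive = inhibition below 25%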
# Target sequence (Q9BYT3 whole entry, looked up): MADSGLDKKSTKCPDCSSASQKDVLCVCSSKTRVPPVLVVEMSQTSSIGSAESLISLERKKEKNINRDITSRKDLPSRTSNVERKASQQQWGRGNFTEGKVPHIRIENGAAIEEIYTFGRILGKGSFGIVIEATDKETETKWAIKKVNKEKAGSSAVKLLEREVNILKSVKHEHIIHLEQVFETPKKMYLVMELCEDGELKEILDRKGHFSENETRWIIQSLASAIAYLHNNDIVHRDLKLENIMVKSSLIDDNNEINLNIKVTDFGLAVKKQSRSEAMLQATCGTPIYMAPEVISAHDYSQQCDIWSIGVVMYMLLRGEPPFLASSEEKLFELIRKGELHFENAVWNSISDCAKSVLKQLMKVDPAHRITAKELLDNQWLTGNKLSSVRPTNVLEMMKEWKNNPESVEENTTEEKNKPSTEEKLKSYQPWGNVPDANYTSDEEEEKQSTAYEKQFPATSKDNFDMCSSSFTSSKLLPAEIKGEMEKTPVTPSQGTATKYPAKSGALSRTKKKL
# Active calls of the source: *. An excerpt, and most or all hits are left out here.
mol | STK33 kinase inh
COc1cc([N+](=O)[O-])cc2cc(C(=O)N3CCCC3)c(=O)oc12 | -1.7
CSc1nc(SC(C)C(=O)O)c2c3c(sc2n1)COC(C)(C)C3 (configuration not stated) | -0.1
CCn1nnc(NC(=O)C(C)Oc2ccc(Cl)cc2Cl)n1 (configuration not stated) | 0.0
Cc1ccccc1-n1c(=O)cc(N2CCN(Cc3ccccc3)CC2)[nH]c1=O | 0.8
C=CCN(C(=O)c1csnn1)C(C(=O)NCc1ccccc1)c1cccs1 (configuration not stated) | -0.8
Cc1ccc(N(CC(=O)Nc2cccc(N(C)S(C)(=O)=O)c2)S(C)(=O)=O)cc1 | -0.5
CC(C)(C)OC(=O)NCCc1n[nH]c(=S)o1 | -1.5
CCn1c(NCc2cc(OC)c(OC)c(OC)c2)nc2ccccc21 | -0.5
Cc1ccc(-c2nnc(N3CCN(C(=O)COc4ccccc4)CC3)c3ccccc23)cc1 | -1.9
CN(CC(=O)Nc1cccc(F)c1)C(=O)c1ccc(COc2ccccc2)o1 | -0.7
CC1CCCCC1NC(=O)C1CC(=O)N(Cc2ccccc2)C1 (configuration not stated) | -1.4
O=C(O)C1C2CCC(O2)C1C(=O)Nc1ccccc1Br (configuration not stated) | -2.1
O=C(CN1CCNCC1)Nc1ccccc1Cl | 0.0
Cc1ccc(-c2nc(CSCC(=O)NC3CCN(Cc4ccccc4)CC3)c(C)o2)cc1 | 0.9
COc1ccc(-c2ccc(C(=S)N3CCN(C(C)=O)CC3)o2)cc1 | 1.7
COc1ccc(N2CCN(C(=O)Cc3ccc(Br)cc3)CC2)cc1 | -1.8
Cc1ccc(-c2cc3c(N=O)c4ccccc4c-3n[nH]2)cc1 | 1.0
CS(=O)(=O)N1CCN(c2ccc(C(=O)NC34CC5CC(CC(C5)C3)C4)cc2[N+](=O)[O-])CC1 | -1.7
CCOC(=O)c1c(C)c(C(=O)NCCOC)c(C)n1CC | -0.1
COc1cc2nc(C(C)(C)C)oc(=O)c2cc1OC | -0.1

# The closing three entries of the part before come first, to join the parts.
mol | STK33 kinase inh
CS(=O)(=O)N1CCN(c2ccc(C(=O)NC34CC5CC(CC(C5)C3)C4)cc2[N+](=O)[O-])CC1 | -1.7
CCOC(=O)c1c(C)c(C(=O)NCCOC)c(C)n1CC | -0.1
COc1cc2nc(C(C)(C)C)oc(=O)c2cc1OC | -0.1
CC1=C(C(=O)OC(C)(C)C)C(c2ccc(Br)cc2)NC(=O)N1CCCC(=O)O (configuration not stated) | -1.9
CC1(c2nnc(Cc3ccccc3)o2)CC(c2ccc(F)cc2)=NO1 (configuration not stated) | 0.3
CN(C)c1nc(Oc2ccc(=O)n(-c3ccccc3)n2)nc(N2CCOCC2)n1 | 3.3
N=C(c1cccc([N+](=O)[O-])c1)N1CCCCCC1 | 0.0
COc1ccc(NC(=O)C2=CC(c3ccc(OC)c(OC)c3)=NS(=O)(=O)N2C)cc1 | -1.5
CC(=O)N(C)c1ccc(NC(=O)Cc2cccs2)cc1 | -2.4
CCn1c(CNc2ccc(F)cc2)nnc1SCC(=O)N1CCCc2ccccc21 | 0.4
Cc1cc(-c2ccccc2C(=O)Nc2ccccc2O)on1 | 0.3
CCOC12CC(C)(C)CC(C)(CC3=C1C(=O)CC(C)(C)C3)C2 (configuration not stated) | -1.6
C[N+]1(CN2C(=O)C3C4C=CC(C4)C3C2=O)CCCCC1 (configuration not stated) | -0.5
CCOCCn1c(CN2CCN(CCO)CC2)nc2c1c(=O)n(C)c(=O)n2C | -0.9
Cc1cc(C)cc(C(=O)NCCC(=O)N2CCC3(CC2)NCCc2[nH]cnc23)c1 | 1.2
O=C(CN(c1ccc(Cl)c(C(F)(F)F)c1)S(=O)(=O)c1ccccc1)N1CCOCC1 | 5.1
CCCCOC(=O)Nc1nnc(/C=C/c2ccc(OC)cc2)s1 | 0.7
O=C(NCc1ccco1)C1CCCN1C(=O)Nc1ccccc1[N+](=O)[O-] (configuration not stated) | 1.7
COc1ccc(OC)c(C2SCCN2S(=O)(=O)c2cccc(C(F)(F)F)c2)c1 (configuration not stated) | 0.0
O=C(OCC(=O)N1CCc2ccccc21)c1ccccn1 | -0.3
COc1ccc(CN2CCNC(=O)C2CC(=O)N(Cc2nccn2C)C(C)C)c(OC)c1 (configuration not stated) | -1.1
NC(=O)CSc1cn(Cc2ccc(F)cc2)c2ccccc12 | -0.8
Cc1ccccc1CCN1CCCC(CN(C)C(=O)C(=O)c2ccco2)C1 (configuration not stated) | -1.0
O=S(=O)(O/N=C1\CCCc2ccccc21)c1ccc(Cl)cc1 | -0.6
CCOc1ccc2ccccc2c1C1NC(=S)N(C)C(C)=C1C(=O)OC (configuration not stated) | 1.1
Cc1cccnc1NC(=O)Cn1nc(C)c([N+](=O)[O-])c1C | -2.8
CCCCn1c(N)c(N(CC(C)C)C(=O)c2cc(Cl)nc3ccccc23)c(=O)[nH]c1=O | -0.3
CCc1cc2cc(C(=O)N3CCN(c4ccccc4)CC3)sc2s1 | -0.4
C[C@H](NC(=O)c1nc[nH]c1C(=O)N[C@@H](CCCCNC(=O)OC(C)(C)C)C(=O)OC(C)(C)C)c1ccccc1 | -0.2
CC(C)NC(=O)C1CCN(C2CCN(C(=O)c3cc4c(s3)CCCCC4)CC2)CC1 | -1.5
CC(=O)c1cccc(NC(=O)Nc2ccc(C)cc2)c1 | 0.3
COc1ccc(C)cc1S(=O)(=O)N1CCC(C(=O)NCCc2ccccc2)CC1 | -3.8
CC1CCN(C(=O)CSc2nnc(-c3ccncc3)n2C)CC1 | -1.8
C/C(N)=C(/C#N)C(=O)CSc1nnc(Cc2ccccc2F)n1N | -1.1
O=C1CCN(CCc2ccccc2)CCN1[C@H](CSc1ccccc1)Cc1ccccc1 | -0.8
Cc1cccc(N2CCN(C(=O)Cn3cccc3C(=O)c3ccccc3)CC2)c1C | -1.6
CN(CCNS(=O)(=O)c1ccc2c(c1)oc(=O)n2C)Cc1ccccc1 | -3.6
Cc1cc(O)cc(O)c1C(=O)Cc1ccccc1 | 0.8
Cc1sc(NC(=O)C2CCCC2)c(C#N)c1C | -0.7
CCOc1ccc2cc(C#N)c(SCC(=O)N3CCOCC3)nc2c1 | 0.3
COc1ccc(/C=C/C(=O)C(C)(C)C)cc1OC | -2.3
CC(NC(=O)CN(c1cccc(C(F)(F)F)c1)S(C)(=O)=O)c1ccccc1 (configuration not stated) | -0.8
O=C(Cn1c(=O)c2cccn2c2ccccc21)NCCc1ccccc1 | 0.0
COc1ccc2cnn(-c3ccccc3)c(=O)c2c1OC | -0.6
Nc1nc2cc3ccccc3cc2[nH]c1=O | 4.1
Cc1ccc(-c2cc(C(F)F)nc(N3CCOCC3)n2)cc1 | 0.1
Cc1ccnc(NC(NC(=O)C(C)C)(C(F)(F)F)C(F)(F)F)c1 | -1.6
CC(=O)c1cccc(NS(=O)(=O)c2csc(C(N)=O)c2)c1 | -0.4
O=C1c2ccccc2C(Nc2ccccc2)N1Cc1ccc2c(c1)OCO2 (configuration not stated) | 0.3
CCc1ccc2ncc(C(=O)c3ccccc3)c(N3CCOCC3)c2c1 | 2.2
CCCn1c(SCC(=O)Nc2sc(C)c(C)c2C(=O)OCC)nc2c1c(=O)n(C)c(=O)n2C | 4.6
COc1ccc(NC(=O)c2sc3nc(N4CCCC4)c4c(c3c2N)CC(C)(C)OC4)cc1 | -2.8
O=C(N/N=C\c1ccncc1)c1ccc(Cl)s1 | 6.8
CCOc1cc2[nH]c(=O)n(Cc3cccc(OC)c3)c(=O)c2cc1OCC | 1.4
CCn1cc(C2=NCC(C)O2)c2ccccc21 (configuration not stated) | 0.1
Nc1nc(SCC(=O)Nc2ccc(S(N)(=O)=O)cc2)n[nH]1 | 0.9
CC1=CCC2C(=O)N(c3ccc(Br)cc3C)C(=O)C2C1 (configuration not stated) | -0.8
Cc1cccc(CN(CC(=O)N/N=C/c2cccs2)S(=O)(=O)c2ccc(Cl)cc2)c1 | -1.3
O=C(NCCc1cccc(C(F)(F)F)c1)C1CCC(=O)N(C2CC2)C1 (configuration not stated) | -1.2
O=C(CCC1CCCCC1)NCc1ccc(F)cc1 | 0.3
COc1cc(OC)c(-c2nn3c(C4CCCCC4)nnc3s2)cc1OC | 2.3
O=C(Nc1ccc2c(c1)OCCO2)c1cnccn1 | 2.0
O=C(N/N=C/c1cc([N+](=O)[O-])ccc1N1CCCCCC1)c1ccccn1 | 0.3

# Gathered by group, the entries above containing a COOH group (3)
mol | STK33 kinase inh
CSc1nc(SC(C)C(=O)O)c2c3c(sc2n1)COC(C)(C)C3 (configuration not stated) | -0.1
O=C(O)C1C2CCC(O2)C1C(=O)Nc1ccccc1Br (configuration not stated) | -2.1
CC1=C(C(=O)OC(C)(C)C)C(c2ccc(Br)cc2)NC(=O)N1CCCC(=O)O (configuration not stated) | -1.9

# The list continues:
mol | STK33 kinase inh
OCCN=c1cc(-c2ccccc2)oc2ccc(Cl)cc12 | -2.8
Cc1ccc(S(=O)(=O)N2CCC(NC(=O)OC(C)C)CC2)cc1 | -0.5
CC1CCN(S(=O)(=O)c2ccc3c(c2)c(=O)c(C(=O)N2CCCCC2)cn3C)CC1 | 0.8
Cc1cc(C)nc(/N=C(\N)Nc2ccc(-c3ccccc3)cc2)n1 | -0.4
CS(=O)(=O)N(CC(=O)NCCc1ccccc1)c1cccc([N+](=O)[O-])c1 | -0.5
Cc1ccc(C(=O)NS(=O)(=O)c2ccc(N=NN(C)C)cc2)cc1 | -0.3
CC1=Nn2c(nnc2-c2cc(C)[nH]n2)SC1 | -1.0
COc1ccc([N+](=O)[O-])cc1NC(=O)C(C)Sc1nc(C)c(C)c(C)n1 (configuration not stated) | 0.0
CCCn1nnc(NC(=O)c2cccc(Cl)c2)n1 | 3.4
O=C1CSC(c2cccnc2)N1Cc1ccc(Cl)c(Cl)c1 (configuration not stated) | -1.0
O=C(NCCCNC(=O)c1cccs1)c1cccs1 | 0.1
CCC1CN(C(=O)Nc2ccc(C)cc2)c2cc(C)ccc2O1 (configuration not stated) | -1.4
N#Cc1ccccc1COc1cccc2c1CCCC2O (configuration not stated) | 1.0
Cc1ccc(NC(=O)CSc2nnc(NC(=O)c3ccco3)s2)cc1 | -0.9
COc1ccc(Cl)cc1NC(=O)CSc1nnc(C)c(=O)n1N | -0.8
O=C(Nc1cccs1)Nc1ccc(Br)cc1F | 0.0
COc1cc(OC)c2c(c1O)OC(c1ccccc1)CC2=O (configuration not stated) | 0.4
CCC(CC)c1nnc(NC(=O)c2ccc(S(=O)(=O)N3CCc4ccccc4C3)cc2)s1 | -0.2
CCCCOc1ccc(CNC(=O)NS(=O)(=O)c2ccc(OCC(C)C)cc2)cc1 | -0.6
COc1cccc(CNC(=O)Cc2ccc(-c3ccccc3)cc2)c1 | -0.5
CCOC(=O)C1CCN(C(=O)C2c3ccccc3C(=O)N(C)C2c2ccc(OC)cc2)CC1 (configuration not stated) | -1.2
Cc1cccc(N(C)S(=O)(=O)c2ccc3[nH]cc(C(=O)N4CCOCC4)c(=O)c3c2)c1 | -0.2
CCOC(=O)c1cccc(NC(=O)C2CCCN(c3nnc(N4CCCC4=O)s3)C2)c1 (configuration not stated) | -1.0
O=C(NCC(c1ccco1)N1CCc2ccccc2C1)C(=O)Nc1ccccc1 (configuration not stated) | -0.2
CC1(C)Cc2c(sc(NC(=O)COc3ccc(Cl)cc3)c2C#N)C(C)(C)N1 | 0.4
CC1=NN(c2ccccc2)C(=O)C1/C=C1/NC(=S)NC1=O (configuration not stated) | 2.7
Nc1nc(NCc2ccco2)nn1-c1ccccc1 | 0.3
CN(Cc1ccccc1)Cc1c(O)ccc2ccccc12 | -0.9
COc1ccc(C(=O)Cn2c(=N)n(C)c3ccccc32)cc1 | -0.5
Clc1ccc(SCCOCCN2CCc3ccccc3C2)cc1 | -0.3
CCOC(=O)C1CCN(c2nc3ccccc3nc2C(C#N)C(=O)OCCOC)CC1 (configuration not stated) | -3.4
CCCCOc1ccc(C(=O)Nc2ccc3c(c2)C(=O)NC3=O)cc1 | 0.0
Cc1cc(C)n2c(Br)c(CSc3nc4ccccc4s3)nc2n1 | 0.5
O=C1[C@H]2[C@@H](c3ccc(F)cc3)N3C(=O)N(c4ccc(C(F)(F)F)cc4)C(=O)[C@@]3(Cc3ccccc3)[C@H]2C(=O)N1C1CCCCC1 | -1.2
COc1ccc(-c2cnnc(N/N=C/c3ccc(OC)c(OC)c3)n2)cc1 | -1.8
O=C(NCc1ccccc1)c1ccc(S(=O)(=O)Nc2cccc(C(F)(F)F)c2)cc1 | 0.5
CCN(CC)S(=O)(=O)c1cccc(C(=O)NC(C(=O)Nc2nnc(C3CC3)s2)C(C)C)c1 (configuration not stated) | -4.6
CC(C)(C)c1ccc(OCC(=O)NCCN2CCCC2)cc1 | -2.6
Cc1cccc(NC2=NCC(=O)N2Cc2cccs2)c1 | 1.3
Nc1ccc2[nH]ncc2c1 | 7.3
Cc1ccc(S(=O)(=O)N2CCN(C(C(=O)Nc3ccc(F)cc3)c3ccccc3)CC2)cc1 (configuration not stated) | -0.8
Cc1ccn2c(=O)nc(SCC(=O)c3ccccc3)nc2c1 | -0.8
Cc1cccc(C(=O)OC(C)CN2C(C)CCCC2C)c1 (configuration not stated) | -1.0
CCN(CC)CCNC(=O)c1cc(Br)c(N)cc1OC | -0.5
CC(C)(C)SC(C(=O)N1CCOCC1)c1ccc(Br)cc1 (configuration not stated) | 0.5
Clc1ccccc1OCCN1CCCCC1 | -2.7
O=C(Cc1cccs1)Nc1ccon1 | -2.4
CCOc1cc(/C=N/NC(=O)C(=O)NCc2ccc3c(c2)OCO3)ccc1OCC(=O)N1CCOCC1 | 0.6
O=[N+]([O-])c1ccc(CS(=O)(=O)c2ncn[nH]2)cc1 | -0.1
c1ccc(N2CCN(CC3CCCCC3)CC2)cc1 | -1.5
COc1ccc(-c2cc(C(=O)Nc3cc(C)on3)c3ccccc3n2)c(OC)c1 | -0.3
Cc1sc(-c2ccncc2)nc1OC(=O)c1ccc(Cl)cc1 | 0.3
